Source: PubChem BioAssay (ICCB-Longwood Screening Facility, Harvard Medical School)
Sa growth inh: inhibitors of Staphylococcus aureus growth at 42 °C. S. aureus RN4220 growth, OD600, 20 h; stronger effect = lower value. relative growth, % (concentration not given with the values). 0.53% of 170,000 active;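 active = growth at 42 °C up to 50% and 20 or more points under that at 30 °C, or under 10% at both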;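 also: 300 nL library stock went into each well; scaled to the means of positive and negative controls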
HCMV UL50-53 inh: disrupts HCMV UL50-UL53 complex binding; HTRF UL50-UL53 interaction, normalized percent inhibition; inhibition, % (no concentration beside the values); 0.15% of 190,000 active; AID 1918969;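 active = both replicates at 50% or more, plus weaker picks with an unusually low signal ratio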;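 also: stock transfer was 100 nL into about 20 µL; 0% = negative control wells and 100% = wells with untagged competitor protein; inactives centre near -12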
GIV-Gai inh: inhibitors of GIV GBA-motif binding to rat Galpha-i3; Galpha-i3/FITC-GIV peptide fluorescence polarization, 90 min; stronger effect = lower value; scaled: aluminum fluoride 0%, vehicle 100%; percent of control (FP), % (no concentration beside the values); 0.42% of 210,000 active;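 active = replicate mean at 85% of control or lower, very high polarization wells dropped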;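 also: wells of about 15 µL received 100 nL stock; the first replicate is given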
Target sequence (P08753 whole entry, looked up): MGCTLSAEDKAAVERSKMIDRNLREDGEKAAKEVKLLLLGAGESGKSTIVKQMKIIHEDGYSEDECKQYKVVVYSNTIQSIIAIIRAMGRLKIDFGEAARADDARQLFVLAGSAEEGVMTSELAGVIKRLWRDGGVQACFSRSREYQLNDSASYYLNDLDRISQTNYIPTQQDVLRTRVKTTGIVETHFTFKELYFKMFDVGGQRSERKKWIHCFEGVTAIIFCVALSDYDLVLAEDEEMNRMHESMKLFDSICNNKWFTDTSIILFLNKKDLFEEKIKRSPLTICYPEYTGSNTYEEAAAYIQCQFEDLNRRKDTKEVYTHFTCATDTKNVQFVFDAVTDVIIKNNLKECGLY
Sa growth inh second temp: also measured in Sa growth inh; calls as there; relative growth, %; measured here: growth at 30 °C;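 optical density after 20 h as mean of two plates; 100% = untreated growth and lower means inhibition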
Active calls of the source: *; · = not tested or not shown; & = joins results of further samples. Rows were taken by chance; about 0.8% have a hit in one of these screens.

compound | Sa growth inh | HCMV UL50-53 inh | GIV-Gai inh | Sa growth inh second temp
COC(=O)c1cc(S(=O)(=O)N2CCC(Cc3ccccc3)CC2)c[nH]1 | · | -42 | 98 | ·
CC1=NN(c2ccc(Br)cc2)C(=O)/C1=C/c1ccc(-c2ccc3c(c2)C(=O)NC3=O)o1 | 98 | · | 92 | 86
Cc1ccc(CCNC(=O)c2ccc(CSCc3ccccc3C)o2)cc1 | 76 | · | 98 | 83
COc1ccc(N2C(=N)S/C(=C\c3ccccc3[N+](=O)[O-])C2=O)cc1 | · | -11 | 105 | ·
COCCCNC(=O)c1[nH]c2cc(OC)ccc2c1Sc1ccc(C)cc1 | 99 | 9 | 101 | 86
O=S(=O)(c1ccc(S(=O)(=O)N(Cc2ccc(F)cc2)Cc2ccc(F)cc2)cc1)N1CCCCC1 | · | -23 | 106 | ·
CCCn1c(N)c(C(=O)CSc2nc3ccccc3n2CCC#N)c(=O)n(C)c1=O | 93 | -16 | · | 97
O=C1CCCC/C1=C/Nc1ccccc1C(=O)O | 97 | · | 103 | 71
CN1CCN(C(=O)CC23CC4CC(CC(Br)(C4)C2)C3)CC1 | 75 | -13 | · | 63
N/C(CCCN1CCCCC1)=N\O | 103 | · | 104 | 99
CCOCCc1nn2c(=O)cc(COC(=O)c3cccc(C)c3)nc2s1 | 84 | · | 104 | 81
COc1ccc(CCNc2ccc3cc(S(=O)(=O)N4CCCCC4)ccc3n2)cc1OC | · | 10 | 103 | ·
Cc1ccc(CNC(=O)Cn2ncc3c(=O)oc4ccc(C)cc4c32)cc1 | 87 | -39 | 104 | 91
COc1cc(NC(=O)Cn2c(=O)n(-c3ccccc3)c(=O)c3c4c(sc32)CCCC4)cc(OC)c1 | 95 | -24 | 102 | 88
Cc1ccc(NC(=O)COC(=O)c2ccccc2)cc1F | 83 | -27 | · | 90
CCOc1ccccc1NC(=O)Cc1coc2c(C)c(C)ccc12 | 97 | 9 | 108 | 99
Cc1cc(=O)nc2c3ccccc3n(CC(=O)N(C)Cc3ccccc3)n12 | 105 | 0 | 107 | 88
Cn1c(CCCNC(=O)C2CCCCC2)nc2ccccc21 | 92 | 10 | 100&103 | 85
CC(C)c1ccc(NC(=O)CCn2c(C(F)(F)F)nc3cc(S(=O)(=O)N(C)C)ccc32)cc1 | · | -30 | 108 | ·
CCOC(=O)CSc1nc2cc3c(cc2c(=O)n1CCCCCC(=O)NCc1ccc2c(c1)OCO2)OCO3 | 100 | · | 99 | 92
Cc1nc2c(-c3ccc(F)cc3)c(C)nn2c(C)c1CCC(=O)N(C)c1ccccc1 | 113 | · | 102 | 97
O=C(O)C(C(=O)O)C1c2ccccc2Oc2ccccc21 | 101 | 16 | 107 | 99
Cc1ccccc1CN1CCCN(CC(=O)Nc2ccc(F)cc2)S1(=O)=O | 105 | · | 98 | 87
CCc1nc2ccc(C(=O)NCCN3CCN(c4cccc(Cl)c4)CC3)cc2nc1CC | 80 | -41 | 104 | 28
CCCn1c(N)c(C(=O)CSc2nc3ccccc3s2)c(=O)[nH]c1=O | 96 | -6 | · | 90
CC(C)Cn1c(=O)c2ccccc2n2c(=O)n(CC(=O)N3CCN(c4ccccc4F)CC3)nc12 | · | 15 | 105 | ·
O=C(COc1ccccc1F)OCc1cc(=O)n2nc(C3CCCCC3)sc2n1 | 88 | · | 106 | 95
CCOC(=O)c1c(OC)cccc1OC | 91 | -6 | 98 | 80
O=C(Nn1cnnc1)c1ccccc1 | 130 | -7 | · | 97
O=c1c2c3c(sc2nc2n1CCC2)CCC3 | 108 | -22 | 106 | 85
O=C(c1ccccc1)N1CCN(C(=O)c2ccc(OCC3CCCO3)cc2)CC1 (configuration not stated) | 102 | -14 | · | 84
COC(=O)c1cc2oc3ccccc3c2n1CC(=O)Nc1ccc(OC)c(OC)c1 | 113 | -5 | 102 | 91
CCOc1ccccc1OCc1nn2c(-c3ccoc3C)nnc2s1 | · | -12 | 108 | ·
CCOC(=O)Nc1noc2ccccc12 | 86 | · | 101 | 83
CC1=C(C#N)C(=O)N(CCc2ccccc2)C(=O)/C1=C\c1ccc(-c2cccc(Cl)c2)o1 | 92 | -20 | 101 | 89
O=C1Nc2ccccc2SC1CC(=O)N1CCc2ccccc2C1 (configuration not stated) | 89 | 3 | 99 | 82
O=C(CCc1n[nH]c(=O)[nH]c1=O)N/N=C/c1ccccc1 | 94 | -21 | 106 | 98
CCC(=O)N1CCc2cc(S(=O)(=O)NC(Cc3ccccc3)C(=O)Nc3ccccc3C)ccc21 (configuration not stated) | 89 | -5 | 109 | 94
Brc1ccc(C2=NN3C(C2)c2ccccc2OC3c2ccc(OCc3ccccc3)cc2)cc1 (configuration not stated) | · | -11 | 100 | ·
COc1ccc(C)cc1NC(=O)COCc1cc(-c2ccc3c(c2)OCO3)on1 | 95 | -19 | 107 | 81

Whole records from above.
`CCc1nc2ccc(C(=O)NCCN3CCN(c4cccc(Cl)c4)CC3)cc2nc1CC` is listed with Sa growth inh: 80; HCMV UL50-53 inh: -41; GIV-Gai inh: 104; Sa growth inh second temp: 28
`CCCn1c(N)c(C(=O)CSc2nc3ccccc3s2)c(=O)[nH]c1=O` is listed with Sa growth inh: 96; HCMV UL50-53 inh: -6; GIV-Gai inh: ·; Sa growth inh second temp: 90
`CCOC(=O)c1c(OC)cccc1OC` is listed with Sa growth inh: 91; HCMV UL50-53 inh: -6; GIV-Gai inh: 98; Sa growth inh second temp: 80

The list continues.
compound | Sa growth inh | HCMV UL50-53 inh | GIV-Gai inh | Sa growth inh second temp
CC1=C(C(=O)c2ccccc2)C(c2ccc(N3CCOCC3)cc2)NC(=O)N1 (configuration not stated) | 74 | -20 | · | 100
Cc1cccc(Cn2c(=O)n(CCCCC(=O)NCc3ccc4c(c3)OCO4)c(=O)c3ccccc32)c1 | 107 | -10 | 102 | 90
COc1ccc(/C=N/OCC(=O)Nc2ccccc2OC)cc1 | 95 | -12 | · | 98
COc1ccc(Cl)cc1N(C)C(=O)c1cc2c(=O)oc3ccc(C)cc3c2s1 | 106 | -27 | 101 | 88
COc1ccc(-n2nc(C(=O)N3CCCC(C)C3)c3c4ccccc4n(C)c3c2=O)cc1 (configuration not stated) | 104 | -17 | 97 | 83
Cc1ccc2nsnc2c1S(=O)(=O)NC12CC3CC(CC(C3)C1)C2 | 81 | -45 | 103 | 62
CCCOc1ccc(-c2nc3ccc(Br)cc3c(=O)o2)cc1 | 100 | -40 | 108 | 85
COc1ccc(CNC(=O)c2oc3c(c2C)-c2nn(Cc4ccccc4Cl)cc2CC3)cc1 | 86 | 5 | 102 | 97
O=C(CN1CCOCC1)NCC1COc2ccccc2O1 (configuration not stated) | 84 | -2 | 104 | 75
O=C(O)C1CCCCN1S(=O)(=O)c1ccccc1Cl (configuration not stated) | 100 | 7 | · | 96
CCOc1ccc(NC(=O)CN2CCN(Cc3cccc(C)c3)S2(=O)=O)cc1 | · | 7 | 100 | ·
COc1ccc2c(=O)c(-c3ccccc3C)c(C(F)(F)F)oc2c1 | 116 | · | 107 | 94
Cc1cc(C)n(-c2nc(C)c(C(=O)N3CCCC3)s2)n1 | · | -7 | 98 | ·
CSc1ncnc2ncn(CC(=O)Nc3ccc(C)c(C)c3)c12 | · | -14 | 104 | ·
CCOc1ccc2nc(NC(=O)C3CC(C)=CCC3C(=O)O)sc2c1 (configuration not stated) | · | -14 | 103 | ·
O=c1[nH]c2ccccc2nc1/C=C(\O)c1ccc(Cl)cc1 | 94 | · | 258 | 77
CCOC(=O)c1ccc(NC(=O)CSc2nc(-c3ccc(OC)cc3)cc(C(F)(F)F)c2C#N)cc1 | 112 | 2 | 121 | 103
CCCN(CCC)CCCNC(=O)C1CCC(CNS(=O)(=O)c2cccc3nsnc23)CC1 (configuration not stated) | 101 | -96 | 104 | 93
Cc1ccc(-c2nc3nc(CN4CCC(C)CC4)cc(=O)n3[nH]2)cc1C | · | -6 | 109 | ·
COc1ccccc1N1CCN(C(=O)c2ccc(Nc3nc4ccccc4n4nnnc34)cc2)CC1 | 105 | -12 | 107 | 91
CC(C)N1CCC2(CC1)C(C#N)=C(N)NC(S)=C2C#N | 85 | 1 | · | 88
O=C(CC1COc2ccccc2N1Cc1ccccc1)NCc1ccccc1 (configuration not stated) | · | -14 | 107 | ·
CC(C)(CC(=O)O)CC(=O)Nc1ccccc1N1CCOCC1 | 121 | 3 | 102 | 96
CCOC(=O)C1CCN(C(=O)c2ccc(NC(=O)N3CCSc4nc(C)cc(C)c43)cc2)CC1 | · | -4 | 101 | ·
CCN1C(=O)C2C3C=CC(C3=C3C4CC5CC(C4)CC3C5)C2C1=O (configuration not stated) | 103 | 3 | 103 | 98
CCOC(=O)c1nc(NC2CCCc3ccccc32)c2c(CC)noc2n1 (configuration not stated) | · | -26 | 108 | ·
CCOc1ccc(OCC)c(NC(=O)CN(C)S(=O)(=O)c2ccc3c(c2)CCCC(=O)N3)c1 | 85 | · | 105 | 82
O=C(C1CCCN1S(=O)(=O)c1ccc(Cl)cc1)N1N=C2/C(=C/c3cccs3)CCCC2C1c1cccs1 (configuration not stated) | 87 | 1 | · | 96
Cc1ccc(S(=O)(=O)Nc2nc3ccc(NC(=O)CCn4nc(C)cc4C)cc3s2)cc1 | · | -17 | 101 | ·
CCc1ccc(-c2cc(C)no2)cc1S(=O)(=O)Nc1ccc(Cl)cn1 | 79 | · | 100 | 91
O=C(c1ccc(Nc2nc3ccccc3n3nnnc23)cc1)N1CCOCC1 | 106 | -38 | 107 | 78
C=C(C)CN1CCN(c2cc(C)nc3c(-c4ccc(F)cc4)cnn23)CC1 | · | 17 | 102 | ·
O=C(O)C1CCCCC1C(=O)NCCc1ccncc1 (configuration not stated) | 116 | -14 | 97 | 87
CCn1c(COc2ccc(C)cc2)nnc1SCC(=O)N1CCCc2ccccc21 | 98 | -2 | 104 | 105
COc1cccc(N2CCN(C(=O)C3CCN(S(=O)(=O)c4c(C)noc4/C=C/c4ccccc4F)CC3)CC2)c1 | 103 | · | 104 | 99
CCOc1ccc(NC(=O)Cn2c(=O)n(CCCS(=O)(=O)C3CCCCC3)c(=O)c3ccccc32)cc1 | 102 | 13 | 100 | 96
CCc1ccc(OC(=O)COc2ccc(Br)c(C)c2)cc1 | 106 | -10 | · | 103
CN1CCN(c2nc(N3CCN(C)CC3)c3cnn(C)c3n2)CC1 | · | 1 | 103 | ·
O=C(O)CC1(CC(=O)Nc2cc3ccccc3cn2)CCCCC1 | 112 | -21 | 103 | 99
C=CC(N)CCC(=O)O (configuration not stated) | 102 | -24&-13&50 | 105 | 95

2 successive entries out of the list so far:
compound | Sa growth inh | HCMV UL50-53 inh | GIV-Gai inh | Sa growth inh second temp
O=C(O)CC1(CC(=O)Nc2cc3ccccc3cn2)CCCCC1 | 112 | -21 | 103 | 99
C=CC(N)CCC(=O)O (configuration not stated) | 102 | -24&-13&50 | 105 | 95

New compounds follow.
compound | Sa growth inh | HCMV UL50-53 inh | GIV-Gai inh | Sa growth inh second temp
Nc1cc(C(=O)O)c(Oc2ccc(Cl)cc2Cl)cc1C(=O)O | 92 | -9 | 98 | 82
Cc1cc(NS(=O)(=O)c2cc(CN3C(=O)C4CCCCC4C3=O)ccc2C)no1 (configuration not stated) | · | -11 | 100 | ·
COc1cccc(Cn2c(NCc3ccc(C)cc3)nc3c2c(=O)n(C)c(=O)n3C)c1 | 93 | -26 | 103 | 92
CC(=O)NC(=O)c1cc2cc(Br)ccc2oc1=Nc1ccc(C(F)(F)F)cc1 | · | -17 | 106 | ·
CN(C)c1cccc(N(C)C)c1CNC(=O)c1ccccc1F | 78 | -16 | 102 | 83
CCCN(CCC)C(=O)CCS(=O)(=O)c1ccc2c(c1)oc(=O)n2C | · | -6 | 110 | ·
COC(=O)C1Sc2[nH]c(=O)sc2C(c2ccc(OC)cc2)C1C(=O)OC (configuration not stated) | 96 | · | 98 | 78
CC(C)(C)c1ccc(C2CC(=O)C=C(O)C2)cc1 (configuration not stated) | 94 | -17 | 106 | 81
O=C(CC1C(=O)OCCN1Cc1ccccc1)Nc1cccc(Cl)c1 (configuration not stated) | 104 | 2 | 107 | 95
COc1ccc2c(=O)c(NC(=O)NCCCN3CCCC3=O)c[nH]c2c1 | 104 | -6 | 101 | 85
CCc1cc(Sc2ccccc2NC(=O)C2CCC2)n2nc(C)nc2n1 | · | -27 | 104 | ·
CC1=C(C(=O)NC(C)C)C2(CCCCC2)OC1=O | 94 | · | 97 | 89
CCOC(=O)c1cc2occc2n1CC(=O)N1CCCCC1 | 88 | 12 | 97 | 89
Cc1cc(NC(=O)c2cc(-c3cccc(Cl)c3)on2)nn1Cc1ccc(Cl)cc1 | 98 | -3 | 105 | 94
COc1ccc(CCNc2nc3c(c(=O)[nH]c(=O)n3C)n2CC(O)COc2ccc(Cl)cc2)cc1OC (configuration not stated) | · | -15 | 101 | ·
CCc1cccc(C)c1NC(=O)CN1C(=O)C2(SCC(=O)N2c2cc(C)cc(C)c2)c2ccccc21 (configuration not stated) | 95 | · | 102 | 91
